Menin MLL FP FL – menin-MLL binding inhibition, fluorescein peptide; 290,000 tested, under 10 active; Fluorescence polarization, fluorescein-MLL peptide displacement from menin; FP activity change, % at 61.4 µM; AID 1766; inconclusive = falling polarisation curve, or a change in total fluorescence; inactive = total fluorescence flat and polarisation flat or rising; no compound was filed as active; the % refers to the polarisation; negative = inhibition;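 further: % of control where 0% means no effect; inhibitors lower the polarisation; unlabelled MLL peptide was the positive control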
Sfp inh – inhibitors of Bacillus subtilis Sfp phosphopantetheinyl transferase | Q9F4F7 | Biochemical Sfp PPTase activity, qHTS | Potency, µM, for the others: max response, negative = inhibition, actives largely listed as inhibitors | 310,000 compounds, 3.5% hits; active means well fitted inhibition curve with a large enough effect; inconclusive means small, poorly fitted or top-dose-only effect, or another doubt; inactive means no such curve, though single readings can be large or run the other way;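 further: the enzyme is Sfp with the accession as filed and its product quenches rhodamine fluorescence; potency means the concentration at half of the fitted maximal effect; 0% = enzyme reaction without inhibitor and -100% = no enzyme wells; top concentration of the series not given in the record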
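After 15 min at room temperature with compound, 15 nM Sfp received 5 uM rhodamine-CoA plus 12.5 uM BHQ-2-ybbR (50 mM Hepes pH 7.6, 10 mM MgCl2). Rate came from the fluorescence difference over 30 min, ex 525/em 598 nm.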
An asterisk follows results filed as active; ? = inconclusive; & = joins results of further samples; [ ] = dose if it differs, or a comment. A portion of the library. The share of hits here may be higher or lower than overall.

Sequence of screens – Menin MLL FP FL, Sfp inh
O=C(Nc1ccccc1)OC[C@H](CN1CCCCC1)OC(=O)Nc1ccccc1
 : 4.4[24.8 µM], 14%
CCc1cc2c(nc1CC)CCN(CC/C(C)=N/O[C@@H](C)c1cn([C@H](CO)Cc3ccccc3)nn1)C2
 : -0.7&-2.7[11.7 µM], -1%&10%
CCC1OCCC=CC1C (stereo unspecified)
 : -4.2[11.7 µM], 9%
CC1(O)C(=O)C=C2C=C(c3ccc(C#N)cc3)OC=C2C1=O (stereo unspecified)
 : 1.6, -19%
O=C(O)c1ccc(S(=O)(=O)N[C@H](Cc2ccc(C(F)(F)F)cc2)C(=O)O)cc1
 : -0.5, 11%
O=c1cnc2cnc(Oc3ccccc3)nc2n1Cc1cccs1
 : 2.0, 13%
CCCN[C@@H](C)C(=O)Nc1ccccc1C
 : 4.8[24.8 µM], 14%
COc1ccccc1-c1ccc2ncnc(NCCN3CCOCC3)c2c1
 : 4.7, 10%
Cc1ccccc1-c1nccc(NCc2cccnc2)n1
 : -0.1, -7%
C=CCOC(=O)C(C(C)=O)C(NC(=O)OC)c1ccco1 (stereo unspecified)
 : -3.3[11.7 µM], 26%
CCNc1ncc2nc(-c3ccccc3)c(=O)n(Cc3ccc(F)cc3)c2n1
 : 4.3, 6%
NC(=O)c1ncn([C@@H]2O[C@H](CO)[C@@H](O)[C@H]2O)c1N
 : 1.5, -19%
CC(C)C[C@H](NC(=O)CNC(=O)[C@H](C)NC(=O)[C@H](CC(C)C)NC(=O)[C@H](CCCNC(=N)N)NC(=O)[C@H](Cc1cnc[nH]1)NC(=O)[C@@H](NC(=O)[C@@H](N)C(C)C)[C@@H](C)O)C(=O)N[C@@H](CC(C)C)C(=O)N[C@@H](CO)C(=O)N[C@@H](CCCNC(=N)N)C(=O)N[C@@H](CO)C(=O)NCC(=O)NCC(=O)N[C@H](C(=O)N[C@H](C(=O)N[C@@H](CCCCN)C(=O)N[C@@H](CC(N)=O)C(=O)N[C@@H](CC(N)=O)C(=O)N[C@@H](Cc1ccccc1)C(=O)N[C@H](C(=O)N1CCC[C@H]1C(=O)N[C@H](C(=O)N[C@@H](CC(N)=O)C(=O)N[C@H](C(=O)NCC(=O)N[C@@H](CO)C(=O)N[C@@H](CCCCN)C(=O)N[C@@H](C)C(=O)N[C@@H](Cc1ccccc1)C(N)=O)C(C)C)[C@@H](C)O)C(C)C)C(C)C)C(C)C
 : -0.9, 7%
O=C(c1ccco1)N1CCC2(CCCN(c3ncccn3)C2)CC1
 : 1.4, 6%
COc1ccc(CNc2ncnc3ccc(-c4ccccc4CN(C)C)cc23)c(OC)c1
 : 4.4, -21%

A section from further up:
Sequence of screens – Menin MLL FP FL, Sfp inh
O=C(Nc1ccccc1)OC[C@H](CN1CCCCC1)OC(=O)Nc1ccccc1
 : 4.4[24.8 µM], 14%
CCc1cc2c(nc1CC)CCN(CC/C(C)=N/O[C@@H](C)c1cn([C@H](CO)Cc3ccccc3)nn1)C2
 : -0.7&-2.7[11.7 µM], -1%&10%
CCC1OCCC=CC1C (stereo unspecified)
 : -4.2[11.7 µM], 9%
CC1(O)C(=O)C=C2C=C(c3ccc(C#N)cc3)OC=C2C1=O (stereo unspecified)
 : 1.6, -19%
O=C(O)c1ccc(S(=O)(=O)N[C@H](Cc2ccc(C(F)(F)F)cc2)C(=O)O)cc1
 : -0.5, 11%
O=c1cnc2cnc(Oc3ccccc3)nc2n1Cc1cccs1
 : 2.0, 13%

More records.
Sequence of screens – Menin MLL FP FL, Sfp inh
C[C@](N)(Cc1ccc(O)cc1)C(=O)O
 : -2.6&-2.7, -10%
CCOC(=O)[C@@H](N)CS
 : -4.1, 28µM*
CCCCC1=CC2=CC(=O)C(C)(OC(=O)CCC(=O)OC)C(=O)C2=CO1 (stereo unspecified)
 : -18, 7%
Nc1nc2c(c(=O)[nH]1)N(C=O)C(CNc1ccc(C(=O)NC(CCC(=O)O)C(=O)O)cc1)CN2 (stereo unspecified)
 : -9.1, 4%
CO[C@H]1COC(=O)C/C=C\[C@H](C)COC(=O)[C@@H](C)NC(=O)C/C=C\[C@@H]1C
 : -1.5[11.7 µM], 1%
CC(=O)OC[C@@H]1O[C@H](C/C=N\OC[C@@H](O)[C@H]2O[C@H]3OC(C)(C)O[C@H]3[C@@H]2O)C=C[C@@H]1OC(C)=O
 : -0.9[11.7 µM], 3%
COc1ccc(-c2coc3cc(O)ccc3c2=O)c(OC)c1O
 : -0.1, 10%
O=C(Nc1cc(C(F)(F)F)ccc1O)Nc1cc(C(F)(F)F)ccc1O
 : 6.4, -12%
COc1ccccc1CCn1c(=O)c(-c2ccc(Cl)cc2)nc2cncnc21
 : 6.6, -1%
Nc1nc2c([nH]c(=S)n2C2OC(CO)C(O)C2O)c(=O)[nH]1 (stereo unspecified)
 : 6.0, 45µM*
CCCCCCC(=O)Cc1cc(OC)c(OC)cc1/C=C(/C(C)=O)C(=O)OC
 : 0.0[11.7 µM], 12%
CNC(=O)[C@]1(C(F)(F)F)C[C@H](CCc2ccccc2)CCCO1
 : 1.4, -11%
CCOC(=O)C1C/C(=C\C(C)=O)c2cccc(C(F)(F)F)c2O1 (stereo unspecified)
 : -1.5[94.6 µM], -9%
CC(=O)C[C@H](O)[C@@H](NC(=O)OC(C)(C)C)C(C)C
 : 4.7[11.7 µM], -14%
COC(=O)C/C=C\[C@@H](C)[C@@H](/C=N\O[C@@H](C)CN1CCCCc2nc(C)c(C)cc21)OC
 : 0.4[11.7 µM], 8%

Exported as a markdown table: entries from further up.
| Molecule | Menin MLL FP FL | Sfp inh |
| --- | --- | --- |
| Nc1nc2c(c(=O)[nH]1)N(C=O)C(CNc1ccc(C(=O)NC(CCC(=O)O)C(=O)O)cc1)CN2 (stereo unspecified) | -9.1 | 4% |
| COC(=O)C/C=C\[C@@H](C)[C@@H](/C=N\O[C@@H](C)CN1CCCCc2nc(C)c(C)cc21)OC | 0.4[11.7 µM] | 8% |

Additional entries follow:
Sequence of screens – Menin MLL FP FL, Sfp inh
CCSC[C@H](NC(=O)[C@H](C)NC(=O)[C@@H](N)Cc1ccc(O)cc1)C(=O)N[C@@H](CC(=O)O)C(=O)N[C@H](C(=O)N[C@@H](C)C(=O)N[C@H](C(=O)N[C@@H](CSCC)C(=O)N[C@H](C(=O)N[C@H](C(=O)N[C@@H](Cc1cnc[nH]1)C(=O)N[C@@H](CCCNC(=N)N)C(=O)N[C@@H](CC(C)C)C(=O)N[C@@H](C)C(=O)NCC(=O)N[C@@H](CC(C)C)C(=O)N[C@@H](CC(C)C)C(=O)N[C@@H](CO)C(=O)N[C@@H](CCCNC(=N)N)C(=O)N[C@@H](CO)C(=O)NCC(=O)NCC(=O)N[C@H](C(=O)N[C@H](C(=O)N[C@@H](CCCCN)C(=O)N[C@@H](CC(N)=O)C(=O)N[C@@H](CC(N)=O)C(=O)N[C@@H](Cc1ccccc1)C(=O)N[C@H](C(=O)N1CCC[C@H]1C(=O)N[C@H](C(=O)N[C@@H](CC(N)=O)C(=O)N[C@H](C(=O)NCC(=O)N[C@@H](CO)C(=O)N[C@@H](CCCCN)C(=O)N[C@@H](C)C(=O)N[C@@H](Cc1ccccc1)C(N)=O)C(C)C)[C@@H](C)O)C(C)C)C(C)C)C(C)C)[C@@H](C)O)C(C)C)[C@@H](C)O)[C@@H](C)O
 : 6.4, 10%
C[C@@H]1CCC[C@]2(C)CCCC[C@@]12O
 : -1.5, 1%
COC(=O)[C@@]1(Cc2ccccc2)[C@H]2c3cc(C(=O)N(C)C)n(Cc4ccc(OC)c(OC)c4)c3C[C@H]2CN1C(=O)c1ccccc1
 : -2.2, -19%
COCCNC(=O)[C@H](C)/C=C/C(NC(=O)OCc1ccccc1)c1ccc(C(=O)OC)cc1 (stereo partly specified)
 : 3.2, 19%
Cn1cccc1C(=O)N1CCC[C@@]2(CCN(Cc3ccccc3)C2)C1
 : 2.7, 10%
C=CCOC(=O)N[C@H](/C(C(=O)OC)=C(\C)NCc1ccccc1)c1cccc(F)c1
 : -0.8, -9%
Cn1cccc1C(=O)N1CCC[C@@]2(CCN(c3ncccn3)C2)C1
 : -1.2, 27%
Cc1noc(C)c1C(=O)N1CCC2(CC1)CCN(c1ccccn1)CC2
 : -5.1, 13%
COc1cccc([C@@H]2Oc3ccc(OC)cc3/C(=N/O[C@@H](C)CN3CCCc4nc(C)c(C)cc43)[C@@H]2O)c1
 : -2.6[11.7 µM], 7%
COc1cc(C(C)C)c2c(c1)S(=O)(=O)N(COc1cc(=O)n3cccc(OCCN4CCCCC4)c3n1)C2=O
 : -1.3, -18%
O=C(c1ccco1)N1CCC2(CC1)CCN(c1ccccc1)CC2
 : -1.4, -7%
C=CCC(C)(O)/C=C/c1ccccc1 (stereo unspecified)
 : -9.7, -6%
CN(C)C(=O)c1ccc(-c2cncnc2NCc2cccnc2)cc1
 : 0.3, -5%
CC(O)C(=O)O (stereo unspecified)
 : 3.9, 16%
C[C@H]1Cc2c(-c3ccccc3)nc3c(c2CO1)CN(C(=O)c1cc(I)ccc1F)CC3
 : 1.6[11.7 µM], 7%
CCCCCCCCCCCCC(=O)N1CCCC[C@H]1CNC(=O)[C@@H](N)CCCCN
 : ?, 50µM*
CCN(CC)CCCN(c1ccccc1)C1Cc2ccccc2C1
 : 0.1, -6%
CN(C)/[N+]([O-])=N/Oc1cc(O/[N+]([O-])=N/N2CCCC2CO)c([N+](=O)[O-])cc1[N+](=O)[O-] (stereo unspecified)
 : -2.0, 79µM*
Cc1sc(CO)c(Sc2ccccc2)c1C(=O)O
 : 15, 22%
COc1ncc2nc(C)c(=O)n(CCC#N)c2n1
 : -2.3, 15%
CCNc1ncc2nc(-c3cccs3)c(=O)n(Cc3cccc(OC)c3)c2n1
 : ?, 16%
CCC/C=C(\CCC)C(NS(=O)(=O)c1ccc(-c2ccccc2)cc1)c1ccc(C(=O)OC)cc1 (stereo unspecified)
 : -5.6, 9%
COC(=O)[C@@H]1C=C[C@H](C)[C@H](CCOc2ccccc2)O1
 : -3.3, 18%
NC(Cc1c[nH]c2ccccc12)C(=O)NCC(=O)O (stereo unspecified)
 : ?, ?
COc1ccc(C2CC(c3ccccc3)Oc3cc(OC)c(OC)c(OC)c32)cc1 (stereo unspecified)
 : -8.9&2.5, -3%&2%
NCCC[C@@H](CC(=O)N[C@@H]1CCNC[C@H]1C(=O)N[C@H](CC(=O)N[C@@H](CCC(=O)O)CC(=O)O)Cc1ccccc1)NC(=O)C[C@H](Cc1c[nH]c2ccccc12)NC(=O)[C@@H]1CNCC[C@H]1N
 : -2.7, -8%
N#CCCn1c(=O)c(-c2cc(F)cc(F)c2)nc2cnc(Oc3ccccc3)nc21
 : -2.9, 1%
CO[C@H]1[C@H](O[C@H]2O[C@@H](C)[C@@H](O[C@@H]3C[C@](C)(O)[C@H](O)[C@H](C)O3)[C@@H](N(C)C)[C@@H]2O)[C@@H](CC=O)C[C@@H](C)[C@@H](O[C@H]2CC[C@H](N(C)C)[C@H](C)O2)/C=C\C=C/C[C@@H](C)OC(=O)C[C@H]1O
 : -5.5[24.8 µM], 20%
CCCCCCCCCCCCC/C=C/[C@@H](O)[C@H](CO)NC(=O)CCCCC
 : -8.7, -12%
CCCCC/C=C\C/C=C\C/C=C\CCCCC(=O)NCC(=O)O
 : -0.8, 14%
COCn1c2ccccc2c2nnc(C(C)=O)nc21
 : -1.9&-3.6[11.7 µM], 1%&-9%
Cn1cccc1C(=O)N1CCC2(CC1)CCN(c1ccccn1)CC2
 : 1.2, 2%
Cc1cc2c(nc1C)CCCN2C[C@H](C)O/N=C1/[C@H]2O[C@@H]2[C@@H](O)[C@H]2[C@H]1CCn1c(=O)n(-c3ccccc3)c(=O)n12
 : -2.1[11.7 µM], 0%
COc1cccc([C@@H]2Oc3ccc(Br)cc3C(=O)[C@H]2OC(=O)Nc2cc(OC)c(OC)c(OC)c2)c1
 : ?, 9%
Cc1noc(C)c1C(=O)N1CCC[C@@]2(CCN(c3cccc(-c4ccccc4)c3)C2)C1
 : 13, 2%
CCCC(=O)OC[C@@H](OC(=O)CCC)[C@@H](OC(=O)CCC)[C@H](Cn1c2nc(=O)[nH]c(=O)c-2nc2cc(C)c(C)cc21)OC(=O)CCC
 : ?, 18%
O=c1ccn(C2OC(COP(=O)(O)OP(=O)(O)OP(=O)(O)O)C(O)C2O)c(=O)[nH]1 (stereo unspecified)
 : 2.3, -2%
COc1ccc(COC(=O)N/N=C2/C[C@@H](O)[C@@H](O)[C@@H]3[C@@H]4C(=O)N(C[C@@H]5CCCO5)C(=O)[C@H]4CC[C@H]23)cc1
 : 0.4[11.7 µM], -6%
COc1ccccc1CNc1ccnc(-c2ccccc2C(F)(F)F)n1
 : 0.5, -14%
CCCCCC1=C2CNC(CC(C)C)(C(=O)OC)C=C2C(C)C1=O (stereo unspecified)
 : ?, -11%
CO[C@H]1COC(=O)C/C=C\[C@@H](C)COC(=O)[C@@H](OCc2ccccc2)/C=C\[C@@H]1C
 : 1.6[11.7 µM], -3%
O=C(O)c1ccc(S(=O)(=O)N[C@H](Cc2ccccc2)C(=O)O)cc1
 : 2.2, -1%

Bioassay records (PubChem)
